Insulin prom inh: TRM-6 insulin promoter activity inhibition; TRM-6 cells (human fetal islet line), insulin promoter-eGFP reporter, imaging; reporter expression induced with tamoxifen; inhibition, % at 2 µM; 130,000 tested, 0.9% active; AID 1273;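 active means inhibition above the mean plus 3 SD, with well images judged a real hit on visual review, cut at about 60% in these data, passing the limit was not always enough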
RGS16-Gao HTS: modulates binding between human RGS16 and Galphao; 220,000 tested, 0.38% active; bead-based flow cytometry RGS16-Galphao binding, fluorescence; actives lie on both sides; binding response (% of control), % at 10 µM;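 active means below 25% or above 175%, edge rows of some plates excepted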;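 further: Galphao activated by GDP with aluminum fluoride before binding; 100% = wells without compound and 0% = beads without RGS; some results beyond the cut were filed as inactive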
Target sequence (O15492 whole entry, looked up): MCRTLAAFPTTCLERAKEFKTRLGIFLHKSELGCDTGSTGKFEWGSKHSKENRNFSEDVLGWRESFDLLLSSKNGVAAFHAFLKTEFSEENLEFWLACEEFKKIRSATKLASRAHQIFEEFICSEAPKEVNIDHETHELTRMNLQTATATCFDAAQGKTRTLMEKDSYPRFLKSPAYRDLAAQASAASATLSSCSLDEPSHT
Target sequence (P09471 whole entry, looked up): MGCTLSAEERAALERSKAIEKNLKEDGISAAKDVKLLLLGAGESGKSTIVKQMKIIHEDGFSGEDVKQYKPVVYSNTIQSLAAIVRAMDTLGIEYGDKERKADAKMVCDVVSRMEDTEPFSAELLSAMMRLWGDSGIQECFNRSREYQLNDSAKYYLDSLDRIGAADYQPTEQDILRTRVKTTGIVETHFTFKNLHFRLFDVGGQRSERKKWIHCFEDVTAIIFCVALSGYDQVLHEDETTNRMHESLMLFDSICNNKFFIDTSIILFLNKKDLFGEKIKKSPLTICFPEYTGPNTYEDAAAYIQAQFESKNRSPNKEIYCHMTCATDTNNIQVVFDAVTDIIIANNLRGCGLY
GALR2 agonist: agonists of human galanin receptor 2 (GALR2); GALR2-expressing cells, agonist activation read-out; activation, %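 (tested at 5 µM)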; 140,000 tested, 0.48% active; AID 803;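 active means above mean plus 3 SD of all compounds, about 5% in these data, not always enough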;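 further: 0% = vehicle buffer wells and 100% = reference agonist at full effect; tested in CHO reporter cells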
Target sequence (O43603 whole entry, looked up): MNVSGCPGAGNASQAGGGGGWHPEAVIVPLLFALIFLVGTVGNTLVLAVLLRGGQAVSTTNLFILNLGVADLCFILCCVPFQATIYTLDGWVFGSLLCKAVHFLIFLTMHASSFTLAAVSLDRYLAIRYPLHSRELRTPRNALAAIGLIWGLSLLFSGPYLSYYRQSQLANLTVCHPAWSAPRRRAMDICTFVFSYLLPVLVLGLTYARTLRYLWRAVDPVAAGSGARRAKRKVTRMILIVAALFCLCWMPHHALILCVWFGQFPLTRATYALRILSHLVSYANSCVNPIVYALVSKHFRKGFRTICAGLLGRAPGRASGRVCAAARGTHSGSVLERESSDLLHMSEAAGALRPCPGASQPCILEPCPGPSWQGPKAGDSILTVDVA
PKD1 inh: blocks activity of human protein kinase D1 | inhibition, %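 (about 10 µM by stock and volumes)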 | Q15139 | 200,000 tested, 0.056% active | PKD1 kinase fluorescence polarization assay;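 active means inhibition of 50% or more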;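 further: controls were vehicle for no effect and a reference inhibitor for full effect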
HSV augment: HSV replication enhancement; 220,000 tested, 0.005% active; AID 1956; maximum fold increase; HSV replication augmentation in cells, fold increase;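 active means peak rise of 1.5-fold or more in the series; tested in PC3 cells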;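 further: first round at 10 µM; read as green reporter fluorescence; hits show the peak of a series up to 25 µM; 1 = signal of infected wells without compound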
Insulin prom inh cell count: further read-out of Insulin prom inh, marked with its call; normalized cell count, %; measured here: cell count, toxicity; reference of the scale not given here;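 cells exposed to compound for 48 h; stained nuclei by imaging scaled within each plate; lower means fewer cells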
HSV augment primary fold: also measured in HSV augment; calls as there; fold increase; compound at 10 µM; measured here: primary screen fold increase 10 uM; tested in PC3 cells;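 GFP signal in the first replicate; 1 = infected wells without compound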
* = called active by the depositor; i = inactive; · = no result given.

Every second line gives: Insulin prom inh, Insulin prom inh cell count, RGS16-Gao HTS, GALR2 agonist, PKD1 inh, HSV augment, HSV augment primary fold
- CCCCN1C(=S)NC[C@@H]1c1ccccc1
  ·, ·, 102.7, ·, 0.6, i, 1.14
- Cc1ccc(NC(=O)CSc2nc(NS(=O)(=O)c3ccc(C)cc3)cc(=O)[nH]2)cc1
  21.4, 93.9, 84.7, -0.5, -3.9, i, 0.9
- CC1Cc2cc(/C(O)=C3/C(=O)C(=O)N(CCCn4ccnc4)C3c3cccnc3)ccc2O1 (stereo not given)
  4.2, 126.9, 95.7, -4.4, -11.6, i, 1.06
- COc1c(C)cc(C(=O)C2CCCN(C(=O)c3cccc(-n4cccn4)c3)C2)cc1C (stereo not given)
  ·, ·, 99.6, ·, -3.3, i, 1.18
- CSc1ccc(-c2nnn(CC(=O)NCc3ccccc3)n2)cc1
  31.6, 108.8, 245.0, -1.5, -3.3, i, 1.1
- Cc1ccc(S(=O)(=O)N(C)CCCC(=O)N2CCN(C=O)CC2)cc1
  -18.2, 116.7, 30.8, -4.0, 2.4, i, 0.96
- Cc1cc(Cl)c(S(=O)(=O)NCc2ccncc2)cc1OCC(N)=O
  -15.8, 197.0, 79.1, 0.5, -2.9, i, 1.02
- CC(C)CNc1cc(Cl)c(S(=O)(=O)NCC(C)C)cc1C(=O)O
  0.0, 109.2, 106.2, -1.6, 3.2, i, 0.94
- CCCCCn1c(=O)[nH]c2cc(C(=O)NCc3ccccn3)ccc2c1=O
  ·, ·, 109.6, ·, -4.8, i, 0.99
- Cc1ccc(NC(=O)/C(=C/c2cccc([N+](=O)[O-])c2)NC(=O)C2CCCCC2)cc1
  35.7, 75.9, 104.5, -4.7, -1.0, ·, ·
- CN1CCN(C(=O)C2CC(c3c(F)cccc3Cl)=NO2)CC1 (stereo not given)
  -16.1, 45.7, 101.0, 1.2, -6.9, i, 0.96
- COC(=O)c1ccc(C(=O)OC)c(NC(=O)Nc2ccc3c(c2)OCO3)c1
  45.0, 111.4, 111.8, -1.1, -8.2, i, 0.94
- O=C(NCCCN1CCOCC1)c1cc(C(=O)C2CCCCC2)c[nH]1
  ·, ·, 99.4, ·, -2.0, i, 1.06
- NSc1nc(N)c2nc(-c3ccccc3)c(-c3ccccc3)nc2n1
  0.0, 115.1, 92.6, ·, 1.4, i, 1.09
- COC(=O)c1onc(-c2ccccc2)c1C(=O)OC
  -14.3, 69.9, 107.3, -3.2, -1.9, i, 0.997

Rewritten bar-delimited: 9 of the compounds above
canonical_smiles | Insulin prom inh | Insulin prom inh cell count | RGS16-Gao HTS | GALR2 agonist | PKD1 inh | HSV augment | HSV augment primary fold
Cc1cc(Cl)c(S(=O)(=O)NCc2ccncc2)cc1OCC(N)=O | -15.8 | 197.0 | 79.1 | 0.5 | -2.9 | i | 1.02
CC(C)CNc1cc(Cl)c(S(=O)(=O)NCC(C)C)cc1C(=O)O | 0.0 | 109.2 | 106.2 | -1.6 | 3.2 | i | 0.94
CCCCCn1c(=O)[nH]c2cc(C(=O)NCc3ccccn3)ccc2c1=O | · | · | 109.6 | · | -4.8 | i | 0.99
Cc1ccc(NC(=O)/C(=C/c2cccc([N+](=O)[O-])c2)NC(=O)C2CCCCC2)cc1 | 35.7 | 75.9 | 104.5 | -4.7 | -1.0 | · | ·
CN1CCN(C(=O)C2CC(c3c(F)cccc3Cl)=NO2)CC1 (stereo not given) | -16.1 | 45.7 | 101.0 | 1.2 | -6.9 | i | 0.96
COC(=O)c1ccc(C(=O)OC)c(NC(=O)Nc2ccc3c(c2)OCO3)c1 | 45.0 | 111.4 | 111.8 | -1.1 | -8.2 | i | 0.94
O=C(NCCCN1CCOCC1)c1cc(C(=O)C2CCCCC2)c[nH]1 | · | · | 99.4 | · | -2.0 | i | 1.06
NSc1nc(N)c2nc(-c3ccccc3)c(-c3ccccc3)nc2n1 | 0.0 | 115.1 | 92.6 | · | 1.4 | i | 1.09
COC(=O)c1onc(-c2ccccc2)c1C(=O)OC | -14.3 | 69.9 | 107.3 | -3.2 | -1.9 | i | 0.997

Later entries
Every second line gives: Insulin prom inh, Insulin prom inh cell count, RGS16-Gao HTS, GALR2 agonist, PKD1 inh, HSV augment, HSV augment primary fold
- CCc1ccc(-n2cc(-c3ccc(F)cc3)[n+]3c2SCCC3)cc1
  ·, ·, 100.3, ·, -6.2, i, 0.86
- CC1=CC(C)(C)N(C(=O)Nc2ccccc2)c2ccccc21
  0.0, 83.3, 52.0, ·, 0.0, ·, ·
- CN(C)c1ccc(/C=C(/NC(=O)c2ccccc2)C(=O)N/N=C/c2ccc([N+](=O)[O-])c(O)c2)cc1
  20.4, 97.1, 97.8, -0.4, -8.8, i, 0.83
- Cc1cc(C)cc(NC(=O)CSc2nnc(Cc3cccn3C)n2-c2ccc(F)cc2)c1
  ·, ·, 101.0, -0.9, 9.5, i, 0.91
- S=C1NCN(Cc2ccccc2)CN1
  ·, ·, 96.8, ·, ·, i, 0.95
- Cc1ccn2cc(CNC(=O)c3cccs3)nc2c1
  ·, ·, 83.3, -2.8, 4.2, i, 0.94
- O=C(CSc1nncc2ccccc12)N1CCOCC1
  ·, ·, 98.6, -0.3, -3.6, i, 1.18
- CCOc1ccc(N(CC(=O)Nc2ccc(C)cc2)S(=O)(=O)c2c(C)noc2C)cc1
  ·, ·, 98.2, -3.0, -3.7, i, 0.95
- Cc1cc(=O)oc2cc(OCC(=O)OCC(=O)NC(=O)NC(C)C)ccc12
  -33.3, 89.6, 101.3, ·, 1.0, i, 0.9
- COc1ccc(-c2[nH]nc3c2C(c2ccccc2OC(=O)N2CCOCC2)C(C#N)=C(N)O3)cc1 (stereo not given)
  19.1, 119.3, 88.4, -1.5, -12.5, i, 0.97
- CC(C)[C@H](NS(=O)(=O)c1ccccc1)C(=O)OCn1nnc2ccccc2c1=O
  -11.5, 135.4, 100.8, 1.0, -6.3, i, 0.9
- CC(=O)c1sc(-c2ccc(F)cc2)cc1NS(=O)(=O)c1ccccc1
  ·, ·, -20.1*, ·, ·, i, 0.59
- CC(C)(C)c1ccc(-c2nc(C#N)c(NCc3cccnc3)o2)cc1
  66.7, 110.9, 102.0, -1.0, -1.5, i, 1.01
- COc1ccc(Cl)cc1C(=O)CSc1nc(N)cc(N)n1
  ·, ·, 110.6, 0.1, 3.1, i, 0.86
- Cc1nnc(-c2ccccc2)[nH]c1=O
  ·, ·, 105.1, ·, -10.2, i, 0.97
- CCOc1cccc(C(=O)Nc2ccncc2)c1
  ·, ·, 101.0, ·, 2.4, i, 0.99
- CCCNC(=O)c1ccc(Cl)c(Cl)c1
  27.0, 136.5, 100.3, -2.9, 2.8, i, 0.97
- Cc1ccc(NC(=O)CCNC(=O)c2ccccc2Cl)cc1S(=O)(=O)N(C)C
  11.1, 85.5, 58.2, -1.6, -6.5, i, 0.95
- COc1cc2c(C(=O)N3CCN(C)CC3)c(CSc3ccccc3)n(C)c2cc1Br
  -111.8, 102.3, 103.4, ·, -4.0, i, 0.88
- O=C(O)CSCC(=O)NCc1ccccc1
  -21.4, 61.2, 59.6, -1.9, -15.3, i, 0.99
- Nc1ccccc1SCc1ccccc1
  68.8, 108.3, 97.2, ·, -3.9, i, 0.88
- CCOc1ccc(-n2cnnn2)cc1S(=O)(=O)N1CCCCC1
  ·, ·, 73.2, -1.1, -6.4, i, 0.73
- O=C(c1ccc(N2CCOCC2)c([N+](=O)[O-])c1)N1CCN(S(=O)(=O)c2cccs2)CC1
  ·, ·, 75.3, ·, 0.0, i, 1.03
- O=C1c2ccc(Oc3ccc4c(c3)C(=O)N(CCCCO)C4=O)cc2C(=O)N1CCCCO
  21.4, 39.6, 99.1, -1.2, -7.7, i, 1
- O=C(NCCc1nc2ccccc2[nH]1)/C(=C/c1ccco1)NC(=O)c1ccc(Br)cc1
  -8.8, 76.0, 100.7, -1.0, 13.6, i, 1
- CCOc1cccc(CNCCNC(=O)c2nonc2N)c1
  8.1, 98.2, 91.9, -1.5, 0.1, i, 0.77
- COc1ccc(C)cc1S(=O)(=O)Nc1ccccc1C
  -80.0, 134.1, 101.5, -0.7, -3.1, i, 0.91
- C/C(=N\NC(=O)c1ccc(Cl)cc1)c1cccc(NC(=O)c2cccnc2)c1
  21.4, 130.9, 103.5, -1.6, 4.0, i, 0.91
- Cc1nn(C(C)C(=O)Nc2ccc(Cl)cn2)c(C)c1[N+](=O)[O-] (stereo not given)
  ·, ·, 100.0, -4.4, 6.6, i, 0.94
- CCOC(=O)CN(C(=O)CSc1nnc(CNc2ccc(F)cc2)n1C)c1ccccc1
  -78.6, 97.0, 100.7, -1.0, -7.4, i, 1.04
- O=C(COC(=O)c1ccc2c(c1)C(=O)N(CCc1ccccc1)C2=O)Nc1ccc(OC(F)F)cc1
  22.6, 80.2, 61.4, 0.1, -4.4, i, 1.1
- Cc1cccc(OCCn2cc(/C=N/NC(=O)c3ccncc3)c3ccccc32)c1
  17.1, 62.3, 119.7, 0.6, -8.4, i, 0.94
- O=[N+]([O-])c1cc(S(=O)(=O)Nc2ccccc2)ccc1N1CCN(c2ccc(O)cc2)CC1
  21.4, 133.3, 101.4, -1.3, 16.7, i, 0.96
- C=CCNCCOCCOc1ccc(C)cc1[N+](=O)[O-]
  -58.1, 62.9, 100.7, -2.5, -5.6, i, 1.09
- NC(=O)C[n+]1ccc(/C=N/O)cc1
  57.1, 76.0, 109.0, ·, -1.9, i, 1.03
- COc1cc2c(cc1OC)C1=C(C#N)CN(C3CCCCC3)CN1CC2
  ·, ·, 101.3, -1.2, 10.2, i, 0.98
- COc1ccc(S(=O)(=O)Nc2nc3ccccc3s2)cc1
  -25.9, 89.9, 101.6, -0.6, -3.6, i, 1.01
- CNC(=O)NC(=O)COC(=O)c1ccc(-n2c(C)ccc2C)cc1
  ·, ·, 94.2, 0.9, 7.4, i, 1.05
- COc1ccc(C(=O)NCS(=O)(=O)c2ccc(C)cc2)cc1
  40.0, 77.9, 103.8, -1.4, -2.2, i, 0.78
- CCCOc1ccc(N2C(=O)CC(NCCc3ccc(S(N)(=O)=O)cc3)C2=O)cc1 (stereo not given)
  -25.0, 95.8, 90.3, -4.0, -1.4, i, 0.85
- CCCCn1cnc2c(c1=O)c1nc3ccccc3nc1n2Cc1ccc2c(c1)OCO2
  ·, ·, 100.0, ·, ·, i, 1.03
- CC1CCN(S(=O)(=O)N2CCC(C(=O)NCc3cccnc3)CC2)CC1
  ·, ·, 108.2, ·, ·, i, 1.08
- Cc1nnc(SCC(=O)NCc2ccccc2Cl)n(N)c1=O
  3.2, 126.8, 102.1, -1.4, -0.6, i, 0.96
- COc1ccc(NC(=O)CN2CCCN(S(=O)(=O)c3ccc(F)cc3)CC2)cc1
  -58.1, 70.7, 106.8, -2.6, -6.1, i, 1.02
- Nc1nc(CN2CCN(c3ccccc3F)CC2)nc(Nc2ccc3c(c2)OCCO3)n1
  0.0, 144.1, 99.6, -1.7, -2.8, i, 0.75
- CS(=O)(=O)N1CCC(C(=O)Nc2ccc(Oc3ccccc3)cc2)CC1
  -38.7, 232.0, 98.7, -2.7, -0.3, i, 0.79
- CCC1=C(OC(=O)N(CC)CC)N2C(=O)OC(=NCC3CC3)[C@]2(Cc2ccccc2)[C@H]2C1=CC[C@H]1C(=O)NC(=O)[C@H]12
  ·, ·, 109.4, ·, ·, i, 0.71
- CN1C2CCC1/C(=C\c1ccccc1F)C(=O)/C2=C/c1ccccc1F
  -14.3, 60.8, 104.8, -1.2, -7.6, i, 0.81
- CCNC(=S)N1CCN(Cc2ccccc2)CC1
  ·, ·, 100.4, ·, -5.0, i, 0.97
- CCOC(=O)Cc1c(C)[nH]c(=S)[nH]c1=O
  9.3, 137.5, 101.5, -2.8, -9.0, i, 1.01
- COC(=O)C1=C(C)N(C2CCCCC2)C(=O)C1
  -16.2, 106.4, 92.2, -1.0, -5.3, i, 0.77
- O=C(CCCOc1ccc(Cl)cc1)Nc1nncs1
  0.0, 53.4, 97.3, -2.4, 4.7, i, 0.94
- Cc1ccnc2nc(C(=O)OCC(=O)Nc3ccc4c(c3)OC(F)(F)O4)nn12
  -26.5, 36.4, 100.9, -1.9, -8.6, i, 0.84
